# D2 ag: activates the human D2 dopamine receptor | DiscoveRx PathHunter D2 beta-arrestin, luminescence, 90 min; 100% = 57 uM dopamine signal | P14416 | AID 624465 | activation, % (no concentration beside the values) | 360,000 compounds, 0.084% hits; in the data active = activation above about 40%; inconclusive = about 15% to 40%; inactive = below about 15%; note: compound concentration not given in the record; the text of the record calls up to 30% inactive
#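 DiscoveRx PathHunter D2 beta-arrestin cells (2,100/well) attached overnight, then compound-stimulated 90 min at 37 C in HBSS/10 mM HEPES/0.1% Tween-20 buffer; beta-galactosidase complementation read by luminescence after 1 h at ambient temperature. Dopamine 57 uM final (EC100) as control.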
# Sfp inh: inhibitors of Bacillus subtilis Sfp phosphopantetheinyl transferase | Q9F4F7 | Potency, µM, for inactives: max response, negative = inhibition, usual class: inhibitors | AID 1490 | Biochemical Sfp PPTase activity, qHTS | 310,000 compounds, 3.5% hits; active = well fitted inhibition curve with a large enough effect; inconclusive = small, poorly fitted or top-dose-only effect, or another doubt; inactive = no such curve, though single readings can be large or run the other way;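 note: the enzyme is Sfp with the accession as filed and its product quenches rhodamine fluorescence; potency is the fitted concentration of half-maximal effect; 0% = enzyme reaction without inhibitor and -100% = no enzyme wells; top concentration of the series not given in the record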
#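 Sfp 15 nM + cpd, 15 min RT; start w/ rhodamine-CoA 5 uM, BHQ-2-YbbR 12.5 uM (final); 50 mM Hepes pH 7.6, 10 mM MgCl2, 0.01% NP-40, 0.01% BSA; read 525/598 nm at 0 and 30 min.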
# CtBP-E1A blk: CtBP/E1A binding inhibition. AlphaScreen GST-E1A/His-CtBP binding, 1536-well; stronger effect = lower value; control for the full effect not named in the record. AID 651724. activity change, % (no concentration beside the values). 340,000 compounds, 0.49% hits; in the data active means activity change below about -65%; inconclusive means about -30% to -65%; inactive means above about -30%; note: % is set by controls: 0 for no effect and ±100 for the full control effect
#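 Homogeneous bead-based format: GST-tagged E1A captured on glutathione donor beads, His-tagged CtBP on nickel acceptor beads; compounds precede bead addition by 2 h at 37 °C.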
# PINK1 modulator: PINK1 expression modulation | PINK1 immunofluorescence, high-content cytometry, 24 h | Potency, µM (highest dose often 76.6 µM), for the others: top-dose activation (PINK1 increase), most hits filed as activators | 410,000 compounds, 0.2% hits | AID 624263; active = well fitted activation curve with a large enough effect; inconclusive = small, poorly fitted or top-dose-only effect; inactive = flat fitted curve, though single readings scatter; cell line not stated here;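 note: potency is the fitted concentration of half-maximal effect; % of control where 0% means no effect; nearly all actives have a fitted effect of over 65% in size; a mitochondrial uncoupler was the plate control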
#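 Compound titrations (5 concentrations, 24 h) on a stable cell line; DMSO and CCCP controls. Endpoint: fixed-cell PINK1 immunofluorescence with mitochondrial, cell and nuclear markers, scanned by microplate cytometer.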
# TRPV1 potentiator: enhances activation of the human vanilloid receptor TRPV1. potentiation, % at 8.33 µM. TRPV1-expressing cells, Fluo-8 calcium influx, capsaicin EC20 potentiation; host cell line not named in the record; control for the full effect not named in the record. 320,000 compounds, 0.02% hits. Q8NER1; active means potentiation above 80%; inconclusive means 30% to 80%; inactive means below 30%; note: 0% is about no effect
#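 Cells expressing TRPV1 were dye-loaded with Fluo-8 and read kinetically: 10 s baseline, 3 min after compound (agonist portion), then 2 min after EC20 capsaicin (allosteric enhancer portion). Calcium-bound dye fluorescence at 480/520 nm.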
# Six1-Eya2 blk: inhibitors of human Six1/Eya2 interaction; activity change, % (test concentration not listed); 360,000 compounds, 0.56% hits; Q15475+O00167; AlphaScreen GST-Six1/His-Eya2 binding, biochemical; stronger effect = lower value; control for the full effect not named in the record; in the data active = activity change below about -65%; inconclusive = about -30% to -65%; inactive = above about -30%; note: % is set by controls: 0 for no effect and ±100 for the full control effect
# Target sequence (O00167 whole entry, looked up): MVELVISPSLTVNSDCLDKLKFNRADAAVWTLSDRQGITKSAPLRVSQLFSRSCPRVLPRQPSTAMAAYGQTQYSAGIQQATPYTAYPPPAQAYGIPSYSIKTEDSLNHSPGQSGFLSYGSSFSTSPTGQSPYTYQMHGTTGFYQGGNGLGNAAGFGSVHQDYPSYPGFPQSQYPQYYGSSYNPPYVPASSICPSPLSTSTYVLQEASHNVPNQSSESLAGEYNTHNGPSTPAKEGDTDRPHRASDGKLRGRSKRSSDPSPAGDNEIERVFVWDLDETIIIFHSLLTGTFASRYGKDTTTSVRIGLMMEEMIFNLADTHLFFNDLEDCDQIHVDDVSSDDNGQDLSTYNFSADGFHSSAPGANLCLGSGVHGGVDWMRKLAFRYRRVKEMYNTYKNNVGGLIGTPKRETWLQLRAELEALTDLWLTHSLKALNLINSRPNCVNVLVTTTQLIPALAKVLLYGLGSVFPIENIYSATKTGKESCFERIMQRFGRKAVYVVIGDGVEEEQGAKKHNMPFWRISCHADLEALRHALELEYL
# Target sequence (Q15475 whole entry, looked up): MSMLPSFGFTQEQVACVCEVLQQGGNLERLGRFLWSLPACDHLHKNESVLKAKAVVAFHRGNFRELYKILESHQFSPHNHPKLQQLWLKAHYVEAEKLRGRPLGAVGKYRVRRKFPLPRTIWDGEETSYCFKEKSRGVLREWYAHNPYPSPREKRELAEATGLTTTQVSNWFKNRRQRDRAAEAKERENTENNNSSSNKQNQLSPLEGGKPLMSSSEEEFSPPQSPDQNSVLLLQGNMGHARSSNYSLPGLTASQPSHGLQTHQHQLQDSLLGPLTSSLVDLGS
#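 Homogeneous AlphaScreen proximity assay pairing GST-Six1 with His-tagged Eya2 (added as 5X mix: 250 nM and 500 nM) in 50 mM Tris pH 8.0, 300 mM NaCl, 1 mM TCEP. Glutathione donor and nickel acceptor beads; 1 h, 37 °C, dark.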
# D2 potentiator: positive allosteric modulators of human D2 dopamine receptor | potentiation, % (no concentration beside the values) | DiscoveRx D2 beta-arrestin cells, luminescence, 90 min; 100% = 57 uM dopamine signal | P14416 | 360,000 compounds, 0.23% hits; active = potentiation of 50% or more; inconclusive = 30% to 50%; inactive = 30% or less;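 note: compound concentration not given in the record; tested on top of an EC20 dose of dopamine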
#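 D2 cells co-treated with compound plus 50 nM dopamine (EC20) for 90 min at 37 deg C to detect potentiation. Beta-arrestin recruitment was read as enzyme-fragment luminescence after 1 h at ambient temperature. Full response was set by 57 uM dopamine.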
# Starred values were filed as active, the others as inactive; ? = inconclusive; . = no result given; & = joins results of further samples; [ ] = dose if it differs, or a comment.
SMILES,D2 ag,Sfp inh,CtBP-E1A blk,PINK1 modulator,TRPV1 potentiator,Six1-Eya2 blk,D2 potentiator
CCN(CC(=O)NCC1CCCO1)S(=O)(=O)c1ccc(Cl)cc1 (stereo not given),4.2,19%,-10,-0.3%,-7,-10,-10
COc1ccc(C(C)=NNC(=O)c2cccc(S(=O)(=O)N3CCCC3)c2)cc1,?,.,-2,0.0%,.,4,-8
CC(C)Cc1nnc(NC(=O)C2CCCC2)s1,-0.9,-11%,-3,0.1%,3,4,-13
CCC(C(=O)OCn1nnc2ccccc2c1=O)c1ccccc1 (stereo not given),1.1,7%,19,2.0%,?,-4,10
C=CCc1c(C)nc(SC(C)C)[nH]c1=O,-2.2,10%,8,0.8%,-1,5,-3
CCCS(=O)(=O)c1c(S(=O)(=O)CCC)c2ccc(C(N)=O)cn2c1C(=O)c1ccccc1,-2.1,10%,5,2.8%,-6,-1,-2
O=C(NCCCN1CCCCC1)C1CC(=O)N(CCc2ccccc2)C1 (stereo not given),-1.6,22%,1,-1.0%,5,4,-24
Cc1cc(C)n(Cc2ccc(C(=O)NCc3ccco3)o2)n1,-6.2,-22%,2,0.9%,8,17,-1
Cc1cc(C)n(Cc2ccc(C(=O)O)o2)n1,-2.3,6%,4,-0.9%,4,6,-13
CCc1ccc(/C=C2\Oc3cc(OS(C)(=O)=O)ccc3C2=O)cc1,5.1,-2%,2,3.5%,-4,0,28
Cc1ccc(S(=O)(=O)N(C)C)cc1NC(=O)COC(=O)CCNS(=O)(=O)c1ccccc1,-2.5,.,5,3.3%,14,-6,-39
COc1ccc(CNS(=O)(=O)c2csc(C(N)=O)c2)cc1OC,-9.6,15%,-16,-1.2%&2.1%,0,4,-9
c1ccc2[nH]c(CCCCCc3nc4ccccc4[nH]3)nc2c1,-3.3,.,2,0.6%,.,-1,-11
Oc1ccc(Nc2nc3ccccc3nc2Nc2ccc(O)cc2)cc1,13,-29%,-23,0.2%,22,-18,?
Cc1ccc2c(c1)N(CCC(=O)NCc1ccco1)C(=O)CO2,1.1,0%,-5,-1.3%,.,3,-25
O=C(CN1N=C(c2ccccc2)CCC1=O)NCCN1CCc2ccccc2C1,-0.6,10%,11,0.0%,1,1,-23
O=C(CCc1nc(-c2ccccc2F)no1)NCCN1CCOCC1,-2.6,19%,10,-0.7%,1,-1,-8
Cc1ccc(C2CC(=O)C(C=NCCN3CCN(C(=S)Nc4ccc(F)cc4)CC3)=C(O)C2)cc1 (stereo not given),-3.9,-20%,5,0.7%,-28,2,-10
O=C(COC(=O)c1ccc(S(=O)(=O)N2CCOCC2)cc1)Nc1ccccc1F,0.6,.,-6,3.9%,-2,-15,-1
CC(=O)c1c(C)cc(C)c(CSc2nnc(-c3ccco3)o2)c1C,2.2,-11%,-2,0.6%[38.3 µM],-11,3,-1
Cc1ccc(Cl)cc1N1CCN(Cc2nnnn2Cc2ccco2)CC1,-2.5,-20%,5,-0.9%,4,-8,-2
Cc1onc(-c2ccccc2)c1C(=O)Nc1nnc(CC(C)(C)C)s1,1.8,-4%,2,0.5%,-3,-4,0
CCOC(=O)N1CCN(C(=S)NC(=O)c2c(-c3c(Cl)cccc3Cl)noc2C)CC1,-3.4,6%,0,0.9%,-2,2,1
CCOC(=O)[C@H]1[C@H]2COc3cc(OC)ccc3[C@@H]2N2C(=O)c3cc(F)c(F)cc3NC(=O)[C@@]12C,-0.7,.,-2,0.4%,-9,3,-11
CC[C@]12c3[nH]c4ccc(OC)cc4c3CCN1C(=O)C(CC(=O)NCCc1ccccn1)C[C@@H]2C(=O)N1CCN(C(=O)C2CC2)CC1 (stereo not given in full),-1.5,.,0,-0.6%,.,0,-2
O=C(c1cnn2c(C(F)(F)F)cc(-c3cccs3)nc12)N1CCCC1,6.0,-20%,1,0.6%,-10,2,2
COc1ccc(Cl)cc1C(=O)NCCCn1ccnc1,2.5,4%,-5,0.5%,-2,8,-8
COc1ccc(CNC(=S)Nc2ccccc2)cc1,8.1,19%,2,-0.8%,-1,8,-3
CCCN(C(=O)COC(=O)c1nc2nc(C)cc(C)n2n1)C1CCS(=O)(=O)C1 (stereo not given),-3.1,.,8,-0.1%,11,8,1
Cn1cnnc1-c1cccc(NC(=O)c2cc(F)c(F)cc2Cl)c1,-4.9,18%,2,0.8%,0,3,-7
CNc1nc2[nH]c(=O)c3c(c2s1)OC(N)=C(C#N)C3c1ccccc1 (stereo not given),-6.4,-7%,8,0.8%,0,7,-10
O=C1CN(S(=O)(=O)c2cccc(Cl)c2Cl)c2ccccc2N1,-1.4,-5%,-1,1.1%,0,-4,-5
CN(C)C1=NCCN1CCCCc1ccccc1,-2.9,.,0,7.8%,-6,5,-5
Cc1ccc(OCC(=O)N(c2ccccn2)C2CCCCC2)c(C)c1,3.1,4%,7,1.0%,-9,9,-3
CCOc1ccc(Nc2nc(Cc3nnc(SCC(=O)NC4CCCCC4)n3C)cs2)cc1,3.4,-8%,-8,-5.2%[38.3 µM],14,-5,4
CC(=O)Nc1ccc(SCC(=O)Nc2cc(C)on2)cc1,-3.6,?,-4,1.0%,-3,9,8
COC(=O)c1c([N+](=O)[O-])c(OC)c(OC)c(OC)c1[N+](=O)[O-],0.6,12%,-4,1.8%,-1,-8,6
CCOC(=O)Cn1nc(C)cc1NC(=O)c1cccnc1,-1.4,10%,-8,1.7%,-8,39,-11
Cc1ccc(S(=O)(=O)N(C)CC(=O)N2CCN(C(=O)c3ccco3)CC2)cc1,-1.1,-13%,0,-1.1%,-4,-1,-18
CC(C)NC(=O)c1cc(-c2ccco2)nn1-c1ccc(Cl)cc1,0.6,10µM*,-5,-3.5%,-12,-2,-1

# Structures shown so far that have a thiophene ring, fused or not, in the order listed:
SMILES,D2 ag,Sfp inh,CtBP-E1A blk,PINK1 modulator,TRPV1 potentiator,Six1-Eya2 blk,D2 potentiator
COc1ccc(CNS(=O)(=O)c2csc(C(N)=O)c2)cc1OC,-9.6,15%,-16,-1.2%&2.1%,0,4,-9
O=C(c1cnn2c(C(F)(F)F)cc(-c3cccs3)nc12)N1CCCC1,6.0,-20%,1,0.6%,-10,2,2

# Later entries:
SMILES,D2 ag,Sfp inh,CtBP-E1A blk,PINK1 modulator,TRPV1 potentiator,Six1-Eya2 blk,D2 potentiator
CCOc1ccc(CNC(=O)C2CCN(C(=O)N3CC(C)Oc4ccccc43)CC2)cc1 (stereo not given),0.8,16%,5,0.2%,-4,-1,-1
COCCn1c(=O)[nH]c2cc(C(=O)NCCN3CCN(c4ccccc4)CC3)ccc2c1=O,?,13%,-7,-0.5%,2,1,0
CC1CCc2cc(F)ccc2N1C(=O)CCl (stereo not given),-2.5,-3%,3,-0.7%,5,3,-11
Cc1cccc(COC[C@H](Cc2ccccc2)N2CCN(C(=O)c3ccc(C(F)(F)F)cc3)CCC2=O)c1,.,.,6,0.7%,.,-4,.
CCOC(=O)C1(C)C(C(=O)OC)=C(c2ccc(OC)cc2)c2ccccc2N1C(=O)OC (stereo not given),-0.1,-14%,0,-1.0%,.,-4,-2
O=C(c1ccc(=O)oc1)N1CCN(c2ccc(F)cc2)CC1,-1.0,13%,0,-0.9%,9,-4,-20
Cc1ccc(NC(=O)CSc2nc3ccccc3c3nc(CCn4cncc4C)nn23)c(C)c1,-3.2,-3%,0,1.6%&6.4%,2,0,5
O=C(COC(=O)Cc1ccccc1F)Nc1ccc(F)cc1F,-3.5,6%,15,2.8%,-27,-10,-25
CCN(CC)c1ccc(-c2nc3cnccc3n2C)cc1,-5.1,-5%,-3,-1.2%,-14,-11,-5
C=CCN(c1ccccc1OC)S(=O)(=O)c1cccc(C(=O)Nc2nnc(C3CC3)s2)c1,11,.,-2,-2.1%,5,-1,-3
COc1ccc(-c2csc(NC(=O)C3CCCCN3S(=O)(=O)c3ccccc3)n2)cc1 (stereo not given),-0.1,11%,-14,-2.7%,-1,-15,12
COCCCN1C(=O)N(c2ccc(F)cc2)C(=O)C1CC(=O)Nc1ccccc1 (stereo not given),1.8,13%,.,-0.1%,-4,1,-4
O=C(COc1ccccc1)Nc1cccc(-c2nc3cc4ccccc4cc3[nH]2)c1,9.8,14%,12,-4.4%[38.3 µM],-18,7,-6
CC1CCCC(C)N1C(=O)CSc1nnnn1C1CCCC1 (stereo not given),5.2,19%,-21,5.2%,-12,-12,0
O=S(=O)(c1ccc(F)cc1)c1nc(-c2ccc(F)cc2)oc1NCCN1CCOCC1,-2.3,-5%,-1,0.2%,-9,-11,-8
O=C(NCc1ccccc1)NC1CCS(=O)(=O)C1 (stereo not given),3.8,12%,12,-1.2%,7,-2,5
C=CCSc1nnc2n(-c3ccccc3OC)c(=O)c3c4c(sc3n12)CCC4,-4.1,-19%,2,0.3%,-1,-7,-22
O=C(N/N=C/c1coc2ccccc2c1=O)c1ccccc1Br,-7.1,14%,5,6.8%,5,4,-8
Cc1nn(C)c(C(=O)N/N=C/c2cccnc2)c1Br,-6.2,20%,-4,-0.5%,6,6,-10
CC(C)c1ccc(/C=C2\NC(=O)NC2=O)cc1,-1.6,-1%,13,-1.0%,-13,12,-5
COc1cc(C(=O)NCCNc2nc3cc(C)ccc3cc2C#N)cc(OC)c1OC,-2.1,9%,.,1.7%,5,4,1
Cc1nc(N2CCOCC2)c2cc(-c3ccccc3)sc2n1,-4.7,?,-2,-0.3%,-28,-3,-35
O=C(NC(=S)Nc1ccc(N2CCCCC2)c(Cl)c1)c1cccs1,-3.4,.,-16,7.4%,.,-22,-3
Cc1cnc(NC(=O)CSc2nnc3ncccn23)s1,-2.1,1%,1,0.8%,4,-11,-7
O=C(c1ccc(Cl)c([N+](=O)[O-])c1)N(c1ccccn1)c1ccccn1,-5.5,-1%,11,1.7%,5,-5,-3
COc1ccc(OC)c(/C=N/n2c(C)nc3ccccc3c2=O)c1,-3.6,.,3,0.9%,.,0,-1
Cc1nn(C)c(C)c1NC(=O)C12CC3CC(CC(C3)C1)C2,-1.1,16%,0,-0.2%,-2,0,0
COc1ccc(-c2cc(C3CC3)nc3sc(C#N)c(N)c23)cc1,-2.6,-24%,53,-0.9%,-4,78,5
O=C(COC(=O)c1ccc2c(c1)OCCO2)NCCc1ccc(F)cc1,1.4,.,9,1.7%,.,2,1
Cc1c(C(=O)N2CCN(C(=O)c3ccco3)CC2)oc2c(Cl)cccc12,-2.5,.,0,4.0%,-12,1,-10
Cc1ccc(Cn2c(=O)sc3ccccc3c2=O)cc1,-0.8,11%,7,1.3%[38.3 µM],6,14,-4

# Source: PubChem BioAssay (National Center for Advancing Translational Sciences (NCATS))
